# Screening results (PubChem BioAssay)
# RecA intein inh – inhibitors of M. tuberculosis RecA intein splicing. P9WHJ3. cell-free RecA intein splicing, fluorescence. inhibition, %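 (about 9 µM by stock and volumes)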. 290,000 tested, 0.75% active; in the data active = inhibition above about 30%; inconclusive = no clear call, values can overlap the other calls;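 also: 0% = vehicle wells and 100% = reference inhibitor control wells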
# Target sequence (P9WHJ3 whole entry, looked up): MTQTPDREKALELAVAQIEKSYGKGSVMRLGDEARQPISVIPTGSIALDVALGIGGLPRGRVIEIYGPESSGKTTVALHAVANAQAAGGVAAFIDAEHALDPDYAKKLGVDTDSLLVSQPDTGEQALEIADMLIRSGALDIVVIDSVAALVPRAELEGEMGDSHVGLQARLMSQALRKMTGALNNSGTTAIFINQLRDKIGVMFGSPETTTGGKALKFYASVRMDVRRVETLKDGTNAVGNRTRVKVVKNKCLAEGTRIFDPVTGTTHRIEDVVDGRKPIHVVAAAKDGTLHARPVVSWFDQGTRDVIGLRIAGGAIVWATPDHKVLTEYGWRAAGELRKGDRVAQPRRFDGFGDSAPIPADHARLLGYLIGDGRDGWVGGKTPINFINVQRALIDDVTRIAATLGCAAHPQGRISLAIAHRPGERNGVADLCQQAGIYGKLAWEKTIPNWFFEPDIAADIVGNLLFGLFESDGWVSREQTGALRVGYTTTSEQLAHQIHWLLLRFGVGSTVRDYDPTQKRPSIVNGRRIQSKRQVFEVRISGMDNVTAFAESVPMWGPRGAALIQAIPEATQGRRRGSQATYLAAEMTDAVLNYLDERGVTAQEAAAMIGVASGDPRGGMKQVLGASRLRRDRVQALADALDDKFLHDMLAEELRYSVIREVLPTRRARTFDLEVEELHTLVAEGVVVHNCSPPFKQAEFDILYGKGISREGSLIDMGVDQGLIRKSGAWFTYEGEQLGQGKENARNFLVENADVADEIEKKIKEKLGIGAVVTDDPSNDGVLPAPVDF
# Mtb betalactam – beta-lactam sensitization of Mtb H37Rv. M. tuberculosis H37Rv growth with meropenem, percent inhibition; hits of this screen are not shown here. inhibition, % at 25 µM. 330,000 tested, 0.27% active;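 active = about 74% or more and at least 40 points above the plate without the antibiotic, then above 30% in a dose series; inconclusive = first-round hits that could not be retested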;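 also: growth measured after seven days incubation then overnight dye step; 0% = bacteria only wells and 100% = bacteria with antibiotic; twin plates without the antibiotic show which effects depend on it; some results filed as inactive read as strong as hits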
# Arbovirus inh – arbovirus infection inhibition; arbovirus infection cell-based antiviral screen; inhibition, % at 10 µM; 200,000 tested, 0.37% active;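 active = inhibition from about 30%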;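 also: bluetongue infection of BSR cells; cell survival read as ATP light after 72 h; 0% = infected wells without compound and 100% = uninfected wells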
# YopH PTP inh – YopH (Yersinia) phosphatase inhibition | fluorescence Ex485/Em525 | inhibition, %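 (about 10 µM by stock and volumes)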 | AID 898 | 140,000 tested, 0.16% active;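 active = inhibition of 50% or more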;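 also: controls were vehicle for no effect and minimum signal wells for full effect; inactives centre near -20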
# Mtb growth – M. tuberculosis H37Rv growth inhibitors, H37Rv strain (AID 1626); inhibition, % at 10 µM; hits with a dose series show IC50 in µM; 220,000 tested, 0.95% active; M. tuberculosis H37Rv growth inhibition; higher % means a stronger effect;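 active = confirmed in a dose series; inconclusive = inhibition above 80% but not taken into the dose series; inactive = below 80% or under 30% at every dose of the series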;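 also: bacteria incubated seven days before Alamar blue readout; 0% = bacteria only wells and 100% = bacteria with antibiotic wells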
# Arbovirus inh repeat – also measured in Arbovirus inh; calls as there; inhibition, %; measured here: 10K subset replicate screen; many hits read low in the repeat;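 first of two repeat runs on a subset; 0% = infected and 100% = uninfected wells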
# Starred values were filed as active, the others as inactive; ? = inconclusive; · = not tested or not shown; & = joins results of further samples.
SMILES,RecA intein inh,Mtb betalactam,Arbovirus inh,YopH PTP inh,Mtb growth,others
COc1ccc(CCNC(=O)c2cc(-c3ccc(C)c(C)c3O)n[nH]2)cc1OC,-1.5,-3,5,7,4%,
CCn1cnc2sc(C)c(C)c2c1=O,·,·,0,-4,2%,
CCc1nccn1CCC(=O)N1CCCC(Nc2ccc(F)cc2)C1 (configuration not stated),0.9,-8,·,·,·,
CC(C)(C)Cc1nnc(NC(=O)CN2C(=O)c3ccccc3C2=O)s1,1.3,1,-4,·,-6%,
Cc1cccc(-n2cccc2)c1C#N,-0.1,-6,7,-24,-5%,
CN(C(=O)Cc1c(C(=O)O)n(C)c2ccccc12)c1ccc(Cl)cc1,0.8,6,·,·,·,
N#Cc1cccc(NC(=O)COC(=O)c2cccc(N3C(=O)c4ccccc4C3=O)c2)c1,-5.7,-2,4,-26,-11%,
COc1ccc2c(c1)OC1=C(C(=O)CCC1)C2C1=C(O)CCCC1=O (configuration not stated),2.7,-6,3,16,-7%,
Cc1ccccc1NC(=S)N(C)Cc1cccs1,-3.2,3,1,-21,-9%,
CC1CN(C(=O)COC(=O)c2cc(Cl)ccc2[N+](=O)[O-])CC(C)O1 (configuration not stated),-0.6,4,·,·,·,
O=c1[nH]cnc2c1c(-c1ccccc1)cn2-c1ccc(Br)cc1,0.9,54,-5,-20,14%,
O=C1CCN(CCCc2ccccc2)CCN1[C@H](CO)c1ccccc1,6.3,-8,·,·,·,
CCOc1ccc(Nc2ccc(N3C(=O)CCC3=O)cc2[N+](=O)[O-])cc1,-0.7,-1,-1,·,-5%,
CC(C)(C)SCCSC1=CC(=O)CC(c2ccccc2)C1 (configuration not stated),-0.6,64,·,·,·,
C/C(=N\Nc1ccc(F)cc1F)c1ccc(N2CCOCC2)cc1,-5.3,93,-36,·,?,
Cc1cc(NC(=O)C2CCCCC2)n(-c2nc3ccccc3[nH]2)n1,-1.5,97,-19,6,2.5µM*,
Cc1ccc2[nH]c(=O)c3cc(C(=O)N(C)c4ccc(C)c(C)c4)sc3c2c1,2.2,70,·,·,-9%,
O=c1c(-c2ccc(Cl)cc2)[n+]([O-])c2ccccc2n1O,-39,0,0,-39,-10%,
COc1cc([N+](=O)[O-])cc(/C=N/NC(=O)c2cc(-c3ccccc3)nc3ccccc23)c1O,3.0,59,·,·,10%,
CCn1cc(/C=C(\NC(=O)c2ccccc2OC)C(=O)NCCCN2CCOCC2)c2ccccc21,3.9,1,·,·,·,

# Molecules listed so far that contain an NH in an aromatic ring:
SMILES,RecA intein inh,Mtb betalactam,Arbovirus inh,YopH PTP inh,Mtb growth,others
COc1ccc(CCNC(=O)c2cc(-c3ccc(C)c(C)c3O)n[nH]2)cc1OC,-1.5,-3,5,7,4%,
O=c1[nH]cnc2c1c(-c1ccccc1)cn2-c1ccc(Br)cc1,0.9,54,-5,-20,14%,
Cc1cc(NC(=O)C2CCCCC2)n(-c2nc3ccccc3[nH]2)n1,-1.5,97,-19,6,2.5µM*,
Cc1ccc2[nH]c(=O)c3cc(C(=O)N(C)c4ccc(C)c(C)c4)sc3c2c1,2.2,70,·,·,-9%,

# Random excerpt: 4 compounds from above, in no set order.
SMILES,RecA intein inh,Mtb betalactam,Arbovirus inh,YopH PTP inh,Mtb growth,others
Cc1cc(NC(=O)C2CCCCC2)n(-c2nc3ccccc3[nH]2)n1,-1.5,97,-19,6,2.5µM*,
CCOc1ccc(Nc2ccc(N3C(=O)CCC3=O)cc2[N+](=O)[O-])cc1,-0.7,-1,-1,·,-5%,
O=c1c(-c2ccc(Cl)cc2)[n+]([O-])c2ccccc2n1O,-39,0,0,-39,-10%,
C/C(=N\Nc1ccc(F)cc1F)c1ccc(N2CCOCC2)cc1,-5.3,93,-36,·,?,

# Next records
SMILES,RecA intein inh,Mtb betalactam,Arbovirus inh,YopH PTP inh,Mtb growth,others
CCOc1ccc2nc(SCC(=O)Nc3ccc4c(c3)OCCO4)[nH]c2c1,0.2,42,-1,-32,51%,
CC(C(=O)NC1CCS(=O)(=O)C1)N1C(=O)/C(=C/c2ccc(Cl)cc2)SC1=S (configuration not stated),6.2,-3,·,·,·,
Cc1nn(Cc2c(F)cccc2Cl)c(C)c1NC(=O)C1CC1,0.7,10,-2,-22,-3%,
CCSc1nnc(NC(=O)c2cc(C)oc2C)s1,-1.7,-3,13,-12,7%,
COc1ccc(CNC(=O)C(=O)NCCC2CCCCN2S(=O)(=O)c2cccs2)cc1 (configuration not stated),-0.6,3,·,·,·,
COc1cccc(C2C(C#N)=C(N)Oc3cc(C)[nH]c(=O)c32)c1OC (configuration not stated),-2.5,3,1,-27,·,
C=CCn1c(Cc2cccs2)nnc1SCC(=O)Nc1ccc(C(=O)OCC)cc1,-0.8,88,2,-41,21%,
COC(=O)c1ccccc1NC(=O)CSc1nc2cccnc2n1C,3.2,-4,2,·,6%,
O=C(COc1ccccc1)N1CCN(C2CC3CCC2C3)CC1 (configuration not stated),1.8,2,-1,-20,1%,
O=C(Cn1cc2c(n1)CCCC2)Nc1ccccc1Cl,0.7,2,5,-33,0%,Arbovirus inh repeat=-2
COc1cc(OC)c(CN2CCc3c([nH]c4ccccc34)C2)cc1Br,1.4,19,·,·,·,
O=C(COc1ccccc1)NCC(c1cccs1)N1CCOCC1 (configuration not stated),1.0,2,0,-29,-6%,
COc1ccc(NC(=O)C23CC4CC(C2)CC(c2ccccc2)(C4)C3)c(OC)c1,12,6,17,-19,8%,
CCCn1c(-c2cccs2)nc2ccccc21,-0.4,31,7,-13,?,
COc1cccc(N2CC(=O)N(c3cccc(OC)c3)CC2=O)c1,-0.3,0,1,·,-2%,
COc1ccc(C2C3=C(CCCC3=O)Nc3n[nH]c(C)c32)cc1OC (configuration not stated),1.0,-5,·,·,-5%,
CCOc1ccccc1COC(=O)c1cccc(-n2cnnn2)c1,-1.5,-6,1,-26,-1%,
COc1ccc(CN2C(=O)NC(C)(c3ccc(C)cc3)C2=O)cc1F (configuration not stated),-0.1,-13,1,·,-4%,
O=C(c1ccccc1Cl)N1CCn2c1nc1ccccc12,1.6,-10,7,·,-5%,
CCOC(=O)C1CCCN(C(=O)c2ccc(CNS(=O)(=O)c3ccc(C)cc3)cc2)C1 (configuration not stated),-0.9,-2,0,·,2%,
CCN(CC)C(=O)Nc1ccccc1C,1.1,-2,-3,-7,-4%,
Cc1cc2oc(=O)cc(-c3cc4ccccc4o3)c2cc1O,-3.9,3,·,·,·,
Cc1c(C(=O)NCc2cccs2)oc2ccccc12,1.9,0,0,-24,9%,
O=C(CC1C(=O)NCCN1Cc1c(F)cccc1Cl)NCCCn1cccn1 (configuration not stated),0.2,-6,·,·,6%,
CCc1nc(SCC(=O)N2CCC(Cc3ccccc3)CC2)c2c(=O)n(C)c(=O)n(C)c2n1,·,·,-5,6,-6%,
COc1ccc(N2C(=O)C3CCCN3C2c2ccc(C)cc2)cc1 (configuration not stated),1.8,2,5,15,-7%,Arbovirus inh repeat=4
O=C(CCCCCn1c(=O)[nH]c2ccsc2c1=O)NCc1cccs1,3.2,-2,2,-20,-12%,
COc1ccc(-n2c3c(c(=O)[nH]c2=O)C(NS(=O)(=O)c2ccc(Cl)cc2)(C(F)(F)F)C(=O)N3)cc1 (configuration not stated),2.1,-3,·,·,-8%,
CC1CCCC(C)N1/N=C/c1cc(Br)cc(Br)c1O (configuration not stated),-3.2,0,-9,-39,10%,
Clc1ccc(C2=NNC(=NCc3ccccc3)SC2)cc1,3.8,14,-7,·,-4%,
C=CCNC(=O)CCCc1ccccc1,-0.3,-3,-2,-30,-1%,
CN1/C(=C\C=C(C#N)C#N)C(C)(C)c2ccccc21,-7.4,-3,-4,·,-1%,
CC(C)(C)n1nc2c(c1NC(=O)Cc1ccc(F)cc1)CSC2,5.5,1,6,-33,-2%,Arbovirus inh repeat=-2
CS(=O)(=O)Cc1ccc(C(=O)Nc2cccc(-c3nc4ccccc4[nH]3)c2)cc1,4.4,-4,·,·,·,
COc1ccc(NS(=O)(=O)c2cccc(C(=O)NNC(=O)c3ccc(Br)o3)c2)cc1,2.0,-10,·,·,·,
COc1ccc(-c2cc(=O)c3cc(F)ccc3[nH]2)cc1,0.5,-11,7,-21,-6%,
CC(C)C(=O)NC(c1ccccc1Cl)c1c(O)ccc2ccccc12 (configuration not stated),-4.5,-16,-4,3,6%,
Cc1nc2ccc(NC(=O)c3cccc(C(F)(F)F)c3)cc2o1,0.6,1,-2,-17,1%,
CCc1nnc(SCc2ccc(C(=O)OC)o2)n1N,1.2,-15,8,-10,-5%,
Cc1cccc(NS(=O)(=O)c2cccc(C(=O)N3CCCCCC3)c2)c1,-0.3,-3,·,·,·,
CCCCCCSc1cccc(-c2nc3ccc(Cl)cn3c2NCc2ccccc2)c1,0.0,-5,·,·,·,
CCOC(=O)/C(C#N)=C/c1c[nH]c2ccccc12,-0.3,-2,2,-9,-10%&0%,
NS(=O)(=O)c1ccc(CCNC(=O)C2CCN(S(=O)(=O)c3c(Cl)cccc3Cl)CC2)cc1,2.9,4,·,·,7%,
COc1cc(NC(=O)COC(=O)/C=C/c2ccc(OC)c(OC)c2)cc(OC)c1,4.5,9,3,·,58%,
NC(=O)c1nsc(C(=O)N(CCc2ccccc2)C(C(=O)NC2CCCC2)c2ccco2)c1N (configuration not stated),-7.0,3,-2,5,13%,
Cc1ccc(Cn2ccc(NC(=O)c3noc4c3CCCC4)n2)cc1,-3.4,-5,7,-22,-3%,
O=C(Nc1ccc(NC(=O)C2CCCCC2)cn1)c1ccco1,-0.6,2,-2,-43,6%,
O=C(Nc1ccc(C2=NCCN2)cc1)c1ccc(Cl)c(C(=O)Nc2ccc(C3=NCCN3)cc2)c1,-1.5,99,·,·,7.7µM*,
CCCCc1nc2cc(C(=O)N3CCC[C@H]3CO)ccc2o1,-0.4,4,·,·,·,
COCCCn1c(C2CCCCC2)nc2oc3cc(OC)ccc3c(=O)c2c1=O,-0.6,-9,-1,-41,1%,

# Continued.
SMILES,RecA intein inh,Mtb betalactam,Arbovirus inh,YopH PTP inh,Mtb growth,others
Cn1cnnc1SCC(=O)Nc1cc(C(F)(F)F)ccc1N1CCOCC1,-1.7,-3,15,·,2%,
CCO[C@@H]1OC(C(=O)N2CCCCCCC2)=C[C@H](c2cn(C(C)=O)c3ccccc23)[C@H]1CCCO,2.9,-2,0,·,·,
O=C(NCc1cccs1)C(=O)NCC1OCCCN1S(=O)(=O)c1ccccc1 (configuration not stated),-6.6,-2,4,-32,-1%,
COc1ccc2nc(/C=N/NC(=O)CCCCCNC(=O)OC(C)(C)C)ccc2c1,-1.3,-7,·,·,-2%,
CC1COC(c2cccn2Cc2ccccc2Cl)=N1 (configuration not stated),1.4,-4,2,-25,4%,
COc1ccc(CNC(=O)c2c([S-])n(-c3ccc(C)cc3)c3cccc[n+]23)cc1,-2.3,6,2,·,7%,
Cc1ccc(NC(C)c2cc(Cl)ccc2O)cc1 (configuration not stated),9.4,5,12,8,-2%,
COc1cccc(C2C(C(N)=O)=C(C)Nc3nc(-c4cccc(Cl)c4)nn32)c1 (configuration not stated),2.1,-1,-11,-57,-5%,
O=C(O)CSc1nc2c(c(C(F)(F)F)n1)CCc1ccccc1-2,-0.3,-5,14,·,-4%,
Cc1ccc(C(C)NC(=O)c2ccco2)cc1C (configuration not stated),-1.4,0,-2,-29,1%,Arbovirus inh repeat=2
CC1=NN(C(N)=S)C(=O)C1N=Nc1cccc(C(=O)O)c1 (configuration not stated),2.4,8,·,·,·,
O=C(Nc1cccc(C(F)(F)F)c1)C1CCN(S(=O)(=O)c2ccc(N3CCCC3=O)cc2)CC1,1.7,56,·,·,·,
C/C(=N\NC(N)=S)c1ccccc1,-0.4,51,·,·,-6%,
COc1ccc(OCC(=O)OC2CCN(C)CC2)cc1,-2.4,-2,6,-10,-6%,
Cn1cc(C(=O)N2CCN(c3cccc(Cl)c3)CC2)c(=O)c2cc(S(=O)(=O)N3CCOCC3)ccc21,-3.2,-4,·,·,·,
O=C(C1=C(O)C(=O)N(CCN2CCOCC2)C1c1ccc(F)cc1)c1cc2ccccc2o1 (configuration not stated),1.1,-4,·,·,·,
O=C(COc1ccc(Cl)cc1)NNC(=O)CSc1nncs1,1.1,-4,3,·,0%,
O=C(Cn1nnc2ccccc21)c1ccccc1,-0.2,-4,5,23,5%,
O=C(COC(=O)/C=C/c1ccc([N+](=O)[O-])cc1)NC(c1ccccc1)c1ccccc1,3.9,5,-5,-23,2%,
CN(Cc1ccsc1)C(=O)CCc1nnc(Cc2c[nH]c3ccccc23)o1,3.8,0,10,·,0%,
COc1ccc(/C=C(\NC(=O)c2ccc(C)cc2)C(=O)NCCCn2ccnc2)cc1,-0.2,-2,·,·,·,
O=C(Nc1ccccc1)N1CCCC(c2nc(-c3ccc(F)cc3)no2)C1 (configuration not stated),2.1,-7,9,-7,1%,
COC(=O)c1sc2ccccc2c1NC(=O)c1ccc(S(=O)(=O)N2CCCC(C)C2)cc1 (configuration not stated),-1.4,3,6,-18,3%,

# This is a subset; rates above refer to the full screens.
